Compound activity: PubChem BioAssay, National Center for Advancing Translational Sciences (NCATS)
Cruzain Triton: blocks cruzain activity in presence of Triton detergent; AID 1478; P25779; purified cruzain, Z-FR-AMC fluorescence, 0.01% Triton; Potency, µM, for the others: max response, negative = inhibition, hits mostly inhibitors; 0.43% of 200,000 active; active = well fitted curve in the direction sought with a large enough effect; inconclusive = small, poorly fitted or top-dose-only effect, or another doubt; inactive = no such curve, though single readings can be large; an effect the other way counts as inactive or inconclusive;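 note: plate controls were neutral wells for no effect and buffer without enzyme for full effect; nearly all actives have a fitted effect of over 40% in size; top concentration of the series not given in the record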
Target sequence (P25779 123-467 limits assumed): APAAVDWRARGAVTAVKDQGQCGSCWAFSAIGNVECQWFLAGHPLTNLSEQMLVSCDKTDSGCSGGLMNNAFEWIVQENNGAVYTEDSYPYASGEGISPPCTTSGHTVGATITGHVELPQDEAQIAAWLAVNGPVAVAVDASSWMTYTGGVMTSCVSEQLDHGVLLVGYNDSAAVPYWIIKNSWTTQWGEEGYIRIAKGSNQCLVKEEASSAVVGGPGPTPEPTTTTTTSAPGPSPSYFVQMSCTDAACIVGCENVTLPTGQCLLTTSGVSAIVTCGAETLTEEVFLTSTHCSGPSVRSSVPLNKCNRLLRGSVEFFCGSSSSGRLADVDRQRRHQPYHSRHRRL
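Sodium acetate buffer (100 mM, pH 5.5) containing 5 mM DTT and 0.01% Triton X-100 hosted 1.5 nM cruzain and test compound for 15 min at room temperature. Cleavage of 2 uM Z-FR-AMC was then tracked by fluorescence.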
Lassa entry inh: blocks Lassa virus binding to or entry into cells | Lassa virus pseudotype entry inhibition, cell reporter; control for the full effect not named in the record | Potency, µM (series often up to 37.9 µM), for inactives: at the highest dose activity change, negative = inhibition, most hits filed as inhibitors | 1.2% of 300,000 active | AID 540256; active means well fitted inhibition curve with a large enough effect; inconclusive means small, poorly fitted or top-dose-only effect, or effect the other way; inactive means flat fitted curve, though single readings scatter; tested in HEK293 cells; note: % is set by controls: 0 for no effect and ±100 for the full control effect; nearly all actives have a fitted effect of over 50% in size; luciferase read-out
StopGo reporter: FMDV 2A StopGo reporter, luciferase signal; human cells with a luciferase reporter of 2A StopGo recoding; control for the full effect not named in the record; Potency, µM (top dose mostly 57.9 µM), for the others: at the top dose signal change, negative = less light; 1.2% of 410,000 active; active = well fitted falling curve with a large enough effect; inconclusive = small, poorly fitted or top-dose-only effect; inactive = no such curve, though single readings can be large or run the other way; tested in HEK293T cells; note: % is set by controls: 0 for no effect and ±100 for the full control effect; nearly all actives have a fitted effect of over 45% in size; luciferase light after 4 h
SARS PLpro yeast: blocks SARS-CoV papain-like protease in a yeast assay | S. cerevisiae expressing SARS-CoV PLpro, growth rescue; control for the full effect not named in the record | Potency, µM (titrated, usually from 32.9 µM), inactives show at the top dose activity, positive = growth rescue | 0.19% of 330,000 active | AID 485353; note: 0% is about no effect; nearly all actives have a fitted effect of over 55% in size; growth read by luminescence after 48 h
MARV entry inh: blocks Marburg virus binding to or entry into cells. Marburg virus pseudotyped entry inhibition, cell reporter; control for the full effect not named in the record; about a third of the inactives were read at about 46 µM. Potency, µM (titrated, usually from 37.8 µM), for the others: at the top dose activity change, negative = inhibition, most hits filed as inhibitors. 1.8% of 300,000 active; active = well fitted inhibition curve with a large enough effect; inconclusive = small, poorly fitted or top-dose-only effect, or effect the other way; inactive = flat fitted curve, though single readings scatter; tested in HEK293 cells; about a fifth of its hits are not listed in these tables; note: % is set by controls: 0 for no effect and ±100 for the full control effect; luciferase read-out
Cruzain noTriton: cruzain (T. cruzi) inhibition without detergent | P25779 | purified cruzain, Z-FR-AMC fluorescence, no detergent | Potency, µM, for the others: max response, negative = inhibition, most hits filed as inhibitors | 2.3% of 200,000 active | AID 1476; active = well fitted curve in the direction sought with a large enough effect; inconclusive = small, poorly fitted or top-dose-only effect, or another doubt; inactive = no such curve, though single readings can be large; an effect the other way counts as inactive or inconclusive;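 note: plate controls were enzyme without inhibitor for no effect and buffer without enzyme for full effect; nearly all actives have a fitted effect of over 40% in size; top concentration of the series not given in the record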
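Detergent-free condition (0.00005% Triton X-100) in acetate buffer pH 5.5 with DTT. 1.5 nM enzyme and compound were pre-mixed 15 min, then 2 uM Z-FR-AMC substrate added; reaction progress from fluorescence change between first and third reads (60 s).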
NS1 function inh: inhibitors of influenza NS1 protein function; S. cerevisiae slowed by influenza A NS1, growth recovery by OD600; Potency, µM (doses to about 46.1 µM), inactives show at the highest dose activity, positive = more growth; 0.4% of 270,000 active; note: actives are rising curves; nearly all actives have a fitted effect of over 50% in size
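In this qHTS, NS1 from influenza A is expressed in budding yeast, where it slows growth. Cells are switched from glucose to 2% galactose medium (pH 6.0, -URA), treated with compound, and growth recovery is read at OD600.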
RE007 growth inh: less growth of the S. pombe RE007 Vpr strain; S. pombe RE007 Vpr strain, BacTiter-Glo ATP luminescence, 24 h; control for the full effect not named in the record; Potency, µM (highest dose often 92.2 µM), inactives show at the highest dose activity change, negative = less growth; 0.21% of 360,000 active; AID 651644; active = well fitted falling curve with a large enough effect; inconclusive = small, poorly fitted or top-dose-only effect; inactive = no such curve, though single readings can be large or run the other way;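 note: % is set by controls: 0 for no effect and ±100 for the full control effect; nearly all actives have a fitted effect of over 50% in size; the assay follows cell death caused by Vpr and the record does not say whether a fall means rescue or toxicity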
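Fission yeast strain RE007, carrying one chromosomally integrated HIV-1 vpr copy, was seeded at OD 0.01 in PMG+AL medium with 23 nL pinned compound. After 24 h at 30 °C and 99% humidity, viability was read by BacTiter-Glo luminescence.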
Starred values were filed as active, the others as inactive; [ ] = remark or other dose. Unless noted, calls come from the whole dose curve; as a rule, active means well fitted rising curve with a large enough effect; inconclusive means small, poorly fitted or top-dose-only effect; inactive means no such curve, though single readings can be large or run the other way. Potency is the fitted concentration of half-maximal effect.

Screening O=C(O)C#Cc1cccc2ccccc12 returned Lassa entry inh 18%[46.1 µM], StopGo reporter -7%, SARS PLpro yeast 0%, MARV entry inh 20%[46.1 µM], NS1 function inh 1% and RE007 growth inh -14%.
COc1ccc(C(=O)NCCS(=O)(=O)NCc2cccs2)cc1 was read as Lassa entry inh -20%, StopGo reporter 9%, SARS PLpro yeast -6%, MARV entry inh 0%[46.1 µM] and RE007 growth inh -5%.
Screening O=C(c1ccc(Br)o1)N1N=C(c2ccc(Cl)cc2)CC1c1ccco1 (centres undefined) returned Lassa entry inh -29%, StopGo reporter -14%, SARS PLpro yeast -4%, MARV entry inh -22%, NS1 function inh 0% and RE007 growth inh -1%.
`CCOc1ccc2[nH]c(=O)c(CN(Cc3ccco3)C(CC)c3nnnn3Cc3ccccc3)cc2c1` (centres undefined) gave Cruzain Triton -11%, Lassa entry inh inconclusive, StopGo reporter inconclusive, SARS PLpro yeast 2%, MARV entry inh inconclusive, Cruzain noTriton 11%, NS1 function inh -1% and RE007 growth inh 20%.
`Cc1ccc(/C=N/n2c(-c3ccncc3)n[nH]c2=S)s1` gave Lassa entry inh inconclusive, StopGo reporter -3%, SARS PLpro yeast 1%, MARV entry inh -29%, NS1 function inh 5% and RE007 growth inh 5%.
`O=C(Nc1ncc2c(n1)CC(c1cccc(Cl)c1)CC2=O)c1ccco1` (centres undefined) gave Lassa entry inh -17%, StopGo reporter -4%, SARS PLpro yeast -1%, MARV entry inh -8%, NS1 function inh -20% and RE007 growth inh 22%.
For COc1ccc(CN2C(=O)CNC2=S)cc1 the results were Lassa entry inh 1%[46.1 µM], StopGo reporter 2%, SARS PLpro yeast -1%, MARV entry inh 7%[46.1 µM], NS1 function inh 6% and RE007 growth inh -6%.
Screening O=C(COC(=O)c1ccc(Cl)c(S(=O)(=O)N2CCc3ccccc3C2)c1)Nc1ncc(Cl)cc1Cl returned Cruzain Triton -0.2%, Lassa entry inh 0%, StopGo reporter -21%, SARS PLpro yeast -2%, MARV entry inh 3%, Cruzain noTriton 20µM*, NS1 function inh 29% and RE007 growth inh -5%.
`CC(=O)Nc1ccc(NC(=O)C(C)n2c3ccccc3c3nc(=O)cc(C)n32)cc1` (centres undefined) gave Lassa entry inh 11%, StopGo reporter 10%, SARS PLpro yeast 0%, MARV entry inh inconclusive and RE007 growth inh -25%.
For CCn1c(SCc2ccc(F)cc2Cl)nnc1-c1nonc1NC(C)=O the results were Cruzain Triton -5.3%, Lassa entry inh -13%[46.1 µM], StopGo reporter 0%, MARV entry inh 2%[46.1 µM] and Cruzain noTriton 5%.
CC(C)(C)C(=O)COC(=O)c1ccccc1O was read as Cruzain Triton 9.1%, Lassa entry inh 11%, StopGo reporter 6%, SARS PLpro yeast 8%, MARV entry inh 18%, Cruzain noTriton -2%, NS1 function inh -3% and RE007 growth inh -21%.
`Cn1c(=O)n(C)c2cc([N+](=O)[O-])c(N3CCN(C(=O)c4ccccc4Cl)CC3)cc21` gave Cruzain Triton -3.2%, Lassa entry inh inconclusive, SARS PLpro yeast 3%, MARV entry inh inconclusive, Cruzain noTriton inconclusive, NS1 function inh 5% and RE007 growth inh inconclusive.
Cc1ccc(CCNC(=O)CN2C(=O)COc3ccc(S(=O)(=O)N4CCCCCC4)cc32)cc1 was read as Cruzain Triton -5.9%, Lassa entry inh -1%[46.1 µM], StopGo reporter 7% and Cruzain noTriton 21%.
CCc1c(C)c2ccc(OCC(=O)NCC3CCC(C(=O)O)CC3)cc2oc1=O (centres undefined) was read as StopGo reporter -16%, SARS PLpro yeast 12%, NS1 function inh 18% and RE007 growth inh -2%.
C/C(=N/N=C1\SCC(=O)N1c1ccccc1)c1ccc(C)cc1 was read as Lassa entry inh 12%, StopGo reporter -16%, SARS PLpro yeast 0%, MARV entry inh 2%[14.2 µM], NS1 function inh 2% and RE007 growth inh 6%.
For COc1cccc2[nH]c3c(=O)n(CCCN4CCOCC4)cnc3c12 the results were StopGo reporter -13%, SARS PLpro yeast 0%, NS1 function inh 0% and RE007 growth inh -16%.
For Cn1nc(C(F)(F)F)c(/C=N/OC(=O)c2ccccc2)c1Cl the results were Cruzain Triton -4.6%, Lassa entry inh -1%, StopGo reporter -2%, SARS PLpro yeast -3%, MARV entry inh 12%, Cruzain noTriton -9%, NS1 function inh 16% and RE007 growth inh -7%.
For Cc1ccc(Cc2cc(C)n[nH]c2=O)cc1 the results were Lassa entry inh 3%, StopGo reporter -12%, SARS PLpro yeast -1%, MARV entry inh 0%, NS1 function inh 3% and RE007 growth inh 16%.
`Cc1cccc(-c2nsc(SCC(=O)NCc3ccco3)n2)c1` gave Cruzain Triton -4.6%, Lassa entry inh 3%, StopGo reporter 0%, SARS PLpro yeast -5%, MARV entry inh 2%, Cruzain noTriton -8%, NS1 function inh -51% and RE007 growth inh 5%.
CC(C)c1ccc(C2C3=C(CC(C)(C)CC3=O)NC3=C2C(=O)c2ccccc23)cc1 (centres undefined) was read as Cruzain Triton -1.4%, Lassa entry inh inconclusive, StopGo reporter -1%, SARS PLpro yeast -4%, MARV entry inh inconclusive, Cruzain noTriton inconclusive, NS1 function inh inconclusive and RE007 growth inh -8%.
O=C(Nc1ccccc1N1CCN(C(=O)c2ccc(Cl)cc2)CC1)c1cc2ccccc2o1 was read as Cruzain Triton -6.5%, Lassa entry inh inconclusive, StopGo reporter -27%, SARS PLpro yeast -14%, MARV entry inh inconclusive, Cruzain noTriton inconclusive, NS1 function inh -38% and RE007 growth inh 4%.
`CCC(=O)N(Cc1ccc(S(N)(=O)=O)cc1)C1CC(=O)N(c2ccc(OC)cc2)C1=O` (centres undefined) gave Cruzain Triton 0.0%, Lassa entry inh 16%, StopGo reporter -14%, SARS PLpro yeast -10%, MARV entry inh 11%, Cruzain noTriton 1%, NS1 function inh -2% and RE007 growth inh -20%.
`CC(C)[C@H](NC(=O)C1CC(=O)N(c2ccc3c(c2)OCCO3)C1)C(=O)NC1CCCC1` (some centres undefined) gave Lassa entry inh -7%[46.1 µM], StopGo reporter 15%, SARS PLpro yeast inconclusive, MARV entry inh -2%[46.1 µM], NS1 function inh 3% and RE007 growth inh 3%.
For COCCCNC(=O)c1ccc(Cn2c(=O)c3ccccc3n(Cc3ccccc3C#N)c2=O)cc1 the results were Cruzain Triton 1.3%, Lassa entry inh inconclusive, StopGo reporter -3%, SARS PLpro yeast 4%, MARV entry inh inconclusive, Cruzain noTriton inconclusive, NS1 function inh 5% and RE007 growth inh 1%.
For CN(Cc1cccs1)C(=O)CCc1c[nH]c2ccccc12 the results were Lassa entry inh -12%[46.1 µM], StopGo reporter 15%, SARS PLpro yeast -5%, MARV entry inh 22%[46.1 µM] and RE007 growth inh -2%.
`Cc1c(C)n(CCN(C)C)c2ccc(C(=O)OCCN(C)C)cc12` gave StopGo reporter -16%, SARS PLpro yeast inconclusive, NS1 function inh -11% and RE007 growth inh -1%.
C=CCn1c(O)c(C2=c3ccccc3=NC2=O)sc1=Nc1ccc(O)cc1 was read as StopGo reporter -3%, SARS PLpro yeast -8%, NS1 function inh 13% and RE007 growth inh 7%.
COc1ccc(CCNC(=O)c2cc(S(=O)(=O)N3CCOCC3)ccc2F)cc1 was read as Lassa entry inh 1%, StopGo reporter -1%, SARS PLpro yeast -4%, MARV entry inh 31% and RE007 growth inh -17%.
`O=c1[nH]cnc(O)c1C(c1ccc(F)cc1)c1c(O)nc[nH]c1=O` gave StopGo reporter 0%, SARS PLpro yeast 0%, NS1 function inh 6% and RE007 growth inh 8%.
Cc1occc1-c1nnc(SCC(=O)Nc2ccc(F)cc2)n1Cc1ccccc1 was read as Cruzain Triton -4.5%, Lassa entry inh inconclusive, StopGo reporter -20%, SARS PLpro yeast 4%, MARV entry inh inconclusive, Cruzain noTriton 7%, NS1 function inh -34% and RE007 growth inh 10%.
`Cc1c(Br)c([N+](=O)[O-])nn1CC(=O)N1CCN(Cc2ccccc2)CC1` gave Lassa entry inh 19%, StopGo reporter -25%, SARS PLpro yeast -4%, MARV entry inh 9%[46.1 µM], NS1 function inh -6% and RE007 growth inh inconclusive.
`O=C1CCC(C(=O)N2CCC(O)(c3ccccc3)CC2)CN1CCc1ccccc1` (centres undefined) gave Lassa entry inh -1%, StopGo reporter 1%, SARS PLpro yeast inconclusive, MARV entry inh 1%, NS1 function inh -1% and RE007 growth inh 4%.
Screening N#CC1=C(N)N(c2ccccc2)C(=O)C1 returned Cruzain Triton -1.3%, Lassa entry inh 1%, StopGo reporter -5%, SARS PLpro yeast 11%, MARV entry inh 8%[46.1 µM], Cruzain noTriton -1%, NS1 function inh 9% and RE007 growth inh 18%.
For CCOc1ccc(NC(=O)c2ccc3[nH]c(C)c(C)c3c2)cc1 the results were Cruzain Triton -8.2%, Lassa entry inh inconclusive, StopGo reporter 21% and Cruzain noTriton -19%.
For O=C(Cn1c(=O)n(-c2ccc(Cl)cc2)c(=O)c2sc3ccccc3c21)NC1CCCCC1 the results were Cruzain Triton -1.5%, Lassa entry inh 1%[46.1 µM], StopGo reporter 7%, MARV entry inh 4%[46.1 µM] and Cruzain noTriton -5%.
COc1ccc(CSc2nnc(N)s2)cc1F was read as Cruzain Triton 0.4%, Lassa entry inh 23%, StopGo reporter 16%, SARS PLpro yeast -4%, MARV entry inh 5%, Cruzain noTriton 4%, NS1 function inh -10% and RE007 growth inh 37%.
Screening Cc1nn(Cc2ccccc2)c(N)c1-c1ccccc1 returned Cruzain Triton -4.1%, Lassa entry inh -18%, StopGo reporter -6%, SARS PLpro yeast 5%, MARV entry inh 3%[46.1 µM], Cruzain noTriton 3%, NS1 function inh -14% and RE007 growth inh 9%.
Screening COc1ccc(C(=O)NC2CC3CCCC(C2)N3Cc2ccccc2)cc1 (centres undefined) returned Lassa entry inh 14%[46.1 µM], StopGo reporter -19%, SARS PLpro yeast 1%, MARV entry inh inconclusive, NS1 function inh -2% and RE007 growth inh -22%.
Screening Cc1[nH]c2ccccc2c1C(=O)COC(=O)C1CCC1 returned Lassa entry inh 11%[46.1 µM], StopGo reporter 18%, SARS PLpro yeast 0%, MARV entry inh -6%[46.1 µM], NS1 function inh -11% and RE007 growth inh -3%.

Not a hit list; any-hit rate near 4.7%.
